Six1-Eya2 blk = qHTS Assay for Inhibitors of the Six1/Eya2 Interaction | Homeobox protein SIX1 (Homo sapiens) + Protein phosphatase EYA2 (Homo sapiens), … | AlphaScreen GST-Six1/His-Eya2 binding, biochemical; active compounds read low; control for the full effect not named in the record | activity change, % (test concentration not listed) | actives 0.56% (n = 360,000) | AID 651725, 2012; in the data active = activity change below about -65%; inconclusive = about -30% to -65%; inactive = above about -30%; also: % is scaled to controls: 0 for no effect and ±100 for the full control effect
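AlphaScreen luminescence read after one hour at 37 °C in darkness. Pin-transferred compounds met GST-Six1 and His-Eya2 protein (5X stock 250 nM/500 nM) plus glutathione donor and Ni-chelate acceptor beads (5X, 50 ug/mL).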
D2 agonist = Beta-Arrestin HTS for Positive Allosteric Modulators of the Human D2 Dopamine Receptor: Agonists. actives 0.084% (n = 360,000). DiscoveRx PathHunter D2 beta-arrestin, luminescence, 90 min; 100% = 57 uM dopamine signal. AID 624465, 2012. activation, % (no concentration beside the values); in the data active = activation above about 40%; inconclusive = about 15% to 40%; inactive = below about 15%; also: compound concentration not given in the record; the text of the record calls up to 30% inactive
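Agonist mode: compounds alone added to overnight-plated D2 PathHunter cells for 90 min at 37 C, with 57 uM final dopamine (EC100) defining full response. Beta-arrestin recruitment detected by chemiluminescent reagent, read after 1 h at ambient temperature.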
D2 PAM = Beta-Arrestin HTS for Positive Allosteric Modulators of the Human D2 Dopamine Receptor: Potentiators. D(2) dopamine receptor (Homo sapiens), P14416. DiscoveRx D2 beta-arrestin cells, luminescence, 90 min; 100% = 57 uM dopamine signal. potentiation, % (no concentration beside the values). actives 0.23% (n = 360,000); active = potentiation of 50% or more; inconclusive = 30% to 50%; inactive = 30% or less;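 also: compound concentration not given in the record; tested on top of an EC20 dose of dopamine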
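PathHunter D2 cells, attached overnight at 37 deg C, received compound in DMSO plus dopamine at EC20 (50 nM final) for 90 min at 37 deg C. Beta-arrestin recruitment was read as luminescence after 1 h with detection reagent at ambient temperature.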
TRPV1 PAM = HTS Assay for Compounds that Act as Potentiators of the Vanilloid Receptor 1. Transient receptor potential cation channel subfamily V member 1 (Homo sapiens), Q8NER1. TRPV1-expressing cells, Fluo-8 calcium influx, capsaicin EC20 potentiation; host cell line not named in the record; control for the full effect not named in the record. potentiation, % at 8.33 µM. actives 0.02% (n = 320,000). AID 540277, 2011; active means potentiation above 80%; inconclusive means 30% to 80%; inactive means below 30%; also: 0% is about no effect
Target sequence (Q8NER1 whole entry, looked up): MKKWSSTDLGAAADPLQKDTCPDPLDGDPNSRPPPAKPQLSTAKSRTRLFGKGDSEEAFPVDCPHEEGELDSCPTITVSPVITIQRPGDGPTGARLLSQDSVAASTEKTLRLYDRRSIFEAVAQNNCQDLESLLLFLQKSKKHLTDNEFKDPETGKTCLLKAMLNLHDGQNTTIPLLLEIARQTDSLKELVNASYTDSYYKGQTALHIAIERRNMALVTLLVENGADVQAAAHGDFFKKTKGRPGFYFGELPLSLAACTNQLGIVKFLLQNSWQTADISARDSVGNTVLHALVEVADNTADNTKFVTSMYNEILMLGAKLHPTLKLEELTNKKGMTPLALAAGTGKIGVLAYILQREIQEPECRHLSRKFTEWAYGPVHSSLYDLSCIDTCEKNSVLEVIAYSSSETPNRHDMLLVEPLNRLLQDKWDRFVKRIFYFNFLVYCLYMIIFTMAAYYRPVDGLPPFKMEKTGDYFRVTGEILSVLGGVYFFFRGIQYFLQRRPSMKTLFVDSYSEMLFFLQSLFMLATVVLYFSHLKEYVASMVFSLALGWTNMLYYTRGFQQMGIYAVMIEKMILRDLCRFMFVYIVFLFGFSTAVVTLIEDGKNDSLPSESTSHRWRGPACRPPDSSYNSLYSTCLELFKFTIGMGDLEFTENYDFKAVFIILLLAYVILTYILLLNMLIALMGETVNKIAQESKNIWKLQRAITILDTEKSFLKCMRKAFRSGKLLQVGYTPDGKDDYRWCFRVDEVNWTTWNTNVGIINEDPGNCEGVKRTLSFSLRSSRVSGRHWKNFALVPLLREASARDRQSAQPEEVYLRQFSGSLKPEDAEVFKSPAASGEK
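Cells expressing TRPV1 were dye-loaded with Fluo-8 and read kinetically: 10 s baseline, 3 min after compound (agonist portion), then 2 min after EC20 capsaicin (allosteric enhancer portion). Calcium-bound dye fluorescence at 480/520 nm.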
PINK1 expr mod = A Quantitative High throughput Screen to Identify Chemical Modulators of PINK1 Expression. PINK1 immunofluorescence, high-content cytometry, 24 h. Potency, µM (series often up to 76.6 µM), without a hit: top-dose activation (PINK1 increase), usual class: activators. actives 0.2% (n = 410,000); active = well fitted activation curve with a large enough effect; inconclusive = small, poorly fitted or top-dose-only effect; inactive = flat fitted curve, though single readings scatter; cell line not stated here;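 also: potency is read from the fitted curve at half-maximal effect; % of control where 0% means no effect; nearly all actives have a fitted effect of over 65% in size; a mitochondrial uncoupler was the plate control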
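Measures PINK1 amount and localization on or inside mitochondria by immunofluorescence. Stable cells get compounds at 5 concentrations for 24 hours before fixation and staining; CCCP controls included.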
Sfp inh = qHTS Assay for Inhibitors of Bacillus subtilis Sfp phosphopantetheinyl transferase (PPTase); Potency, µM, inactives show max response, negative = inhibition, usual class: inhibitors; Biochemical Sfp PPTase activity, qHTS; actives 3.5% (n = 310,000); 4'-phosphopantetheinyl transferase ffp (Bacillus subtilis), Q9F4F7; active = well fitted inhibition curve with a large enough effect; inconclusive = small, poorly fitted or top-dose-only effect, or another doubt; inactive = no such curve, though single readings can be large or run the other way;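 also: the enzyme is Sfp with the accession as filed and its product quenches rhodamine fluorescence; potency is read from the fitted curve at half-maximal effect; 0% = enzyme reaction without inhibitor and -100% = no enzyme wells; top concentration of the series not given in the record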
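Fluorescence-quenching assay: 15 nM Sfp-PPTase preincubated 15 min at room temperature with compound, then 5 uM rhodamine-CoA and 12.5 uM BHQ-2-labelled YbbR peptide added. Fluorescence (ex 525/em 598 nm) read at start and after 30 min; difference gives rate.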
CtBP-E1A blk = qHTS Assay for Inhibitors of the CtBP/E1A Interaction; CtBP / adenovirus E1A interaction (AlphaScreen); AID 651724, 2012; AlphaScreen GST-E1A/His-CtBP binding, 1536-well; active compounds read low; control for the full effect not named in the record; actives 0.49% (n = 340,000); activity change, % (concentration not given with the values); in the data active means activity change below about -65%; inconclusive means about -30% to -65%; inactive means above about -30%; also: % is scaled to controls: 0 for no effect and ±100 for the full control effect
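Homogeneous bead-based format: GST-tagged E1A captured on glutathione donor beads, His-tagged CtBP on nickel acceptor beads; compounds precede bead addition by 2 h at 37 °C.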
Numbers without * were called inactive; ? = inconclusive; nt = no result given; & = joins results of further samples; [ ] = another dose, or the depositor's remark.

SMILES | Six1-Eya2 blk | D2 agonist | D2 PAM | TRPV1 PAM | PINK1 expr mod | Sfp inh | CtBP-E1A blk
Cc1nn(CC(=O)N2CCC(C)CC2)c(=O)c2cccn12 | -10.8 | ? | -7.3 | 14.8 | -0.7% | 22.3% | nt
COc1ccc(C2N(c3ccccc3)CCN2c2ccccc2)cc1O | -14.4 | -2.7 | 2.4 | -5.4 | 16.1% | -13.5% | -8.7
COc1ccc(Nc2nc(N3CCOCC3)nc(N3CCOCC3)n2)c(OC)c1 | 7.3 | -2.5 | -2.3 | -3.6 | 2.0% | 19.1% | -0.3
O=C1N(c2ccccc2)C[C@@H]2C[C@@H](c3cc4ccccc4o3)N3CCC[C@@]123 | -3.1 | -2.2 | -12.3 | -14.0 | -1.5% | -0.3% | -17.2
O=c1oc2ccccc2nc1/C=C(\O)c1ccc(Br)cc1 | 1.4 | -2.6 | -5.0 | 4.4 | 1.0% | 56.2µM* | -23.1
CCCCCCSc1ccc(-c2nc3cc(C)ccn3c2NC2CCCCC2)cc1 | -0.8&13.8 | 12.9 | -0.4 | nt | 17.8µM* | nt | 4.1&1.8
C=CCN1C(=O)CSc2ccc(C(=O)NCc3ccco3)cc21 | -6.4 | -2.4 | -9.9 | -2.1 | 14.1%[38.3 µM] | -3.8% | -7.4
O=[N+]([O-])c1cc(S(=O)(=O)N2CCCC2)ccc1OCc1ccccc1 | -15.1 | -0.3 | -3.1 | 2.1 | 1.8% | 4.4% | -4.2
CCOCCCNC(=O)C(NC(=O)c1ccc(=O)[nH]c1)c1ccc(C)cc1 (stereo unspecified) | -7.5 | -3.5 | -6.0 | 5.2 | 1.4% | 17.5% | 5.8
CCOCCCNC(=O)c1ccccc1NC(=O)C1=C(C)OCCS1 | 3.1 | 11.7 | -7.3 | 1.7 | -0.5% | 4.2% | -6.3
CCN1CCN(CC(O)COC(C)C)CC1 (stereo unspecified) | -0.2 | -2.0 | -0.3 | 9.8 | 5.3%[38.3 µM] | -5.8% | 2.7
O=C(N/N=C\c1ccc(Cl)cc1)C1=NOC2COC3(CCN(c4ccc([N+](=O)[O-])cc4)CC3)OCC12 (stereo unspecified) | -7.3 | 4.1 | -8.7 | 17.5 | 2.5% | 15.2% | -21.3
O=C1CCN(S(=O)(=O)c2ccccc2)CCN1CCOCc1ccccc1 | -12.3 | -0.3 | -5.9 | 10.3 | -0.8% | 15.1% | -1.1
N#CC(C(=O)NC1CC1)c1nc2ccccc2nc1N1CCCC1 (stereo unspecified) | -6.5 | -0.5 | -0.6 | -14.3 | -1.4% | -5.7% | -12.5
O=C(NNS(=O)(=O)c1ccc(F)cc1)C1CCN(S(=O)(=O)c2ccccc2)CC1 | -1.4 | -2.5 | -4.7 | -1.8 | 0.3% | 0.7% | -2.2
COc1ccc(CNc2nc3c(c(=O)n(Cc4ccc(Cl)cc4)c(=O)n3C)n2C)cc1 | -0.1 | 5.2 | 7.6 | -16.1 | -2.1% | -1.0% | -6.8
Cc1cccc(CN2CCN(CC(C)C)C(CCO)C2)n1 (stereo unspecified) | -0.9 | -3.2 | -8.6 | -0.2 | 1.1% | -7.8% | -8.7
CC1=C(CC(=O)c2ccccc2)C(=O)c2ccccc2C1=O | ? | 12.4 | 27.7 | nt | 1.4% | -19.6% | -20.4
CCCC[n+]1ccn(C2=C([O-])c3ccccc3C(=O)/C2=N\S(=O)(=O)c2ccc(Br)cc2)c1 | 1.5 | 10.4 | ? | -5.6 | ? | -12.2% | -4.8
NC(=S)n1[nH]c(-c2ccccc2)c(N=Nc2ccccc2C(=O)N2CCOCC2)c1=O | 0.8 | -7.0 | -10.8 | 13.3 | 0.5% | ? | -5.4
CCOc1ccccc1C(C(=O)NC1CCCC1)N(Cc1ccco1)C(=O)CNC(=O)c1ccco1 (stereo unspecified) | -1.4 | -0.2 | -16.4 | -14.5 | -0.6% | 7.0% | -0.7
CCCCN1C(=O)c2ccc(C(=O)NC3(C)CCS(=O)(=O)C3)cc2C1=O (stereo unspecified) | 11.5 | -2.9 | -1.6 | -2.5 | 0.4% | nt | nt
CCc1ccc(/C=N/NC(=O)c2cc(C3CC3)nc3ccc(Br)cc23)s1 | 17.3 | -7.8 | -25.5 | 4.9 | ? | 16.2% | 0.0
OCC[C@@H]1C[C@@H](O)[C@H](O)[C@]2(Cc3ccccc3CO2)O1 | 0.3 | -2.9 | -7.3 | -10.0 | -0.6% | 20.6% | 2.2
COC(=O)NCC(c1cccnc1)N1CCOCC1 (stereo unspecified) | -1.6 | -5.6 | -10.3 | 27.3 | -0.2% | 7.9% | 3.2

Next section
SMILES | Six1-Eya2 blk | D2 agonist | D2 PAM | TRPV1 PAM | PINK1 expr mod | Sfp inh | CtBP-E1A blk
COC1=C(OC)C(=O)C(Sc2ccc3ccccc3c2)=CC1=O | -16.0 | 4.4 | -20.3 | nt | -4.0% | nt | -7.1
NC(=O)c1sc2nc(N3CCOCC3)c3c(c2c1N)CCCC3 | ? | -1.0 | -8.1 | 4.8 | -1.4% | 44.7µM* | ?
O=c1[nH]c2cccnc2n1Cc1ccco1 | 0.2 | -1.0 | -15.1 | 15.1 | -1.7%[38.3 µM] | -32.7% | 7.8
O=C(COC(=O)c1ccccc1-c1nc2ccccc2s1)Nc1ccccc1C(F)(F)F | 4.6 | 0.1 | -5.9 | 2.9 | 1.0% | 7.0% | -12.6
O=C1OC(COCC#Cc2ccccc2)CN1c1ccccc1 (stereo unspecified) | 5.0 | -5.1 | -8.9 | nt | 1.0% | nt | 1.8
Cc1ccc(SCC(=O)OCC(=O)NCCc2ccccc2)cc1C | 6.7 | -3.2 | -1.2 | -6.6 | 0.1% | nt | 9.6
O=C(CN1CCN(c2ccccc2O)CC1)NC(=O)NCc1ccco1 | -0.2 | 2.1 | -9.3 | 4.0 | -0.1% | 6.4% | -3.5
CCOC(=O)c1c(NC(=O)CN2C(=O)NC3(CCCCCC3)C2=O)sc(C)c1-c1ccc(C)cc1 | 3.1 | -2.0 | 11.7 | -0.2 | 9.1% | 12.8% | -8.2
CC1(Oc2cccc(F)c2)CCN(Cc2ccc(-c3ccccc3)o2)C1 (stereo unspecified) | -1.0 | 2.3 | -15.4 | nt | ? | nt | 2.7
Cc1c(O)ccc2cc(S(=O)(=O)c3ccccc3)c(=O)oc12 | 11.8 | 12.0 | 25.2 | 0.2 | 0.4% | -18.2% | 18.9
CCOc1[nH]n(-c2ccccc2)c(=O)c1C=Nc1ccc(C(=O)OC)cc1 | -6.9 | -5.4 | -2.4 | 4.7 | 0.7% | 3.5% | nt
CCn1c(-c2ccccc2Cl)nn(CC(=O)Nc2cc(Cl)ccc2Cl)c1=S | 1.7 | 4.4 | -5.3 | 5.3 | -0.6% | -1.3% | -2.0
CC1CC(C)CN(C(=O)C2CCN(S(=O)(=O)N3CCC4(CC3)OCCO4)CC2)C1 (stereo unspecified) | 0.4 | -2.8 | -7.7 | -4.4 | -0.7% | -0.2% | 1.3
COc1ccccc1NC(=O)COC(=O)c1oc2ccccc2c1C | 3.3 | 0.0 | -8.7 | -9.9 | 2.4% | 7.8% | 7.5
CCCc1cc(=O)[nH]c(SCC(=O)Nc2ccc3ccccc3c2)n1 | -1.1 | -5.7 | -1.6 | nt | -1.4% | nt | -0.2
CN(CC(=O)Nc1ccc(Cl)c(C(F)(F)F)c1)C(=O)CNC(=O)C1CCCCC1 | 7.8 | 4.0 | -0.6 | -0.7 | 6.8% | nt | -5.9
CCOC(=O)c1cc(NC(=O)c2ccc(C)cc2)c(=O)oc1-c1ccccc1 | -1.7 | 5.5 | -8.3 | nt | 15.7% | -13.4% | 7.8
COc1ccc(S(=O)(=O)Nc2ccccc2C(=O)N2CCCCC2)cc1C | 2.2 | -6.8 | -7.6 | 9.4 | -1.3% | 10.8% | -1.4
O=C(CNC(=O)COc1ccccc1)NCCN1CCOCC1 | 7.1 | -2.9 | -1.9 | -2.4 | 0.2% | nt | -2.4
CCC(C(=O)Nc1cccc(C(F)(F)F)c1)c1ccccc1 (stereo unspecified) | 0.0 | -1.1 | 7.9 | -12.3 | 14.5% | 25.8% | 20.1
CC1(CO)COC(c2ccccc2)=N1 (stereo unspecified) | 3.8 | -2.6 | -4.3 | 3.8 | -0.4% | 0.6% | 19.3
CC1CN(C(=O)CSc2nnc3c(Cl)cc(Cl)cn23)CC(C)O1 (stereo unspecified) | -9.9 | -3.9 | -29.5 | 10.5 | 2.3% | 11.9% | -4.2
CCN(C(=O)c1cc2c(=O)n3ccccc3nc2s1)C1CCCCC1 | 11.0 | 9.6 | 4.6 | 8.3 | 2.0% | 0.2% | -11.5
CCCS(=O)(=O)NC(=O)C1(C)CCN(C(=O)c2cccs2)C1 (stereo unspecified) | 17.4 | -2.7 | -5.4 | nt | 3.9% | nt | -19.9
Cc1ccc(NC(=O)c2ccc(Cn3cc([N+](=O)[O-])cn3)cc2)c(C)c1 | 13.2 | -4.7 | -0.5 | -12.8 | 9.9% | -18.4% | -2.1
CC(=O)N1N=C(c2ccncc2)OC1(Cc1ccccc1)Cc1ccccc1 | -3.6 | -4.6 | -22.0 | 0.7 | -0.2% | -11.0% | nt
Cc1cc(C(=O)CSc2nn3c(=O)c(C(C)(C)C)nnc3s2)c(C)n1-c1ccc(F)cc1 | -14.6 | -2.9 | -7.9 | -0.3 | -0.6% | -11.6% | -2.7
COc1ccc(N2CCN(S(=O)(=O)c3c(C)noc3/C=C/N(C)C)CC2)cc1 | -6.6 | 2.1 | 2.2 | -1.6 | -1.7% | 9.7% | -16.7
C(=N\Nc1ncnc2nc[nH]c12)/c1cccs1 | ? | -2.4 | -34.9 | -2.0 | 0.2% | ? | ?

An excerpt of these results, tab-delimited.
Compound	Six1-Eya2 blk	D2 agonist	D2 PAM	TRPV1 PAM	PINK1 expr mod	Sfp inh	CtBP-E1A blk
CCOC(=O)c1c(NC(=O)CN2C(=O)NC3(CCCCCC3)C2=O)sc(C)c1-c1ccc(C)cc1	3.1	-2.0	11.7	-0.2	9.1%	12.8%	-8.2
O=C(CN1CCN(c2ccccc2O)CC1)NC(=O)NCc1ccco1	-0.2	2.1	-9.3	4.0	-0.1%	6.4%	-3.5
